CtBP-E1A inh: CtBP/E1A binding inhibition; AlphaScreen GST-E1A/His-CtBP binding, 1536-well; stronger effect = lower value; control for the full effect not named in the record; activity change, % (concentration not given with the values); 0.49% of 340,000 active; AID 651724; in the data active means activity change below about -65%; inconclusive means about -30% to -65%; inactive means above about -30%; note: % is set by controls: 0 for no effect and ±100 for the full control effect
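In 5 uL wells, 23 nL compound meets equimolar GST-E1A and His-CtBP (5X stock 125 nM each) for 2 h, 37 °C. Beads (5X, 50 ug/mL) then 1 h, 37 °C, dark.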
TRPML1 inh: human mucolipin-1 channel inhibition. Q9GZU1. TRPML1-inducible cells, Ca2+ dye fluorescence, FDSS; stronger effect = lower value; inhibition of EC80 agonist-evoked calcium signal. activity change, negative = inhibition, % (concentration not given with the values). 0.02% of 390,000 active; in the data active means activity change below about -50%; inconclusive means about -30% to -50%; inactive means above about -30%;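 note: stimulus is agonist 54-4 at its EC80 concentration; % is set by controls: 0 for no effect and ±100 for the full control effect; compound concentration not given in the record; the text of the record puts the active cut at -80%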
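Tet-induced TRPML1-DL cells loaded with Ca8 no-wash calcium dye were read kinetically on FDSS. Compound addition was followed by EC80 agonist 54-4 (4 uM final); inhibition was read over 110 s.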
Six1-Eya2 blk: blocks human Six1 binding to Eya2; activity change, % (no concentration beside the values); Q15475+O00167; 0.56% of 360,000 active; AlphaScreen GST-Six1/His-Eya2 binding, biochemical; stronger effect = lower value; control for the full effect not named in the record; AID 651725; in the data active = activity change below about -65%; inconclusive = about -30% to -65%; inactive = above about -30%; note: % is set by controls: 0 for no effect and ±100 for the full control effect; compound concentration not given in the record
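Six1/Eya2 binding was read as AlphaScreen signal after compounds were pinned into GST-Six1 plus His-tagged Eya2 (5X stock 250/500 nM) in pH 8.0 Tris/NaCl/TCEP buffer, beads added, then incubated 1 h, 37 C, dark.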
TRPML1 ag: agonists of human TRPML1 channel; 0.12% of 410,000 active; TRPML1-expressing cells, Ca2+ dye fluorescence, FDSS; host cell line not named in the record; reference of the full effect not given here; activation, % (test concentration not listed); Q9GZU1; in the data active = activation above about 50%; inconclusive = about 30% to 50%; inactive = below about 30%; note: 0% is about no effect; the text of the record puts the active cut at 80%
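Tet-induced TRPML1-DL cells, 1,500 per well, cultured overnight, were loaded with a no-wash Ca2+ dye for 45–90 min. Calcium fluorescence was recorded on the FDSS for 110 s after compound addition, before the EC80 agonist (4 uM 54-4) was added.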
TRPV1 potentiator: potentiators of human vanilloid receptor 1 (TRPV1). TRPV1-expressing cells, Fluo-8 calcium influx, capsaicin EC20 potentiation; host cell line not named in the record; control for the full effect not named in the record. potentiation, % at 8.33 µM. 0.02% of 320,000 active. AID 540277; active means potentiation above 80%; inconclusive means 30% to 80%; inactive means below 30%; note: 0% is about no effect
Target sequence (Q8NER1 whole entry, looked up): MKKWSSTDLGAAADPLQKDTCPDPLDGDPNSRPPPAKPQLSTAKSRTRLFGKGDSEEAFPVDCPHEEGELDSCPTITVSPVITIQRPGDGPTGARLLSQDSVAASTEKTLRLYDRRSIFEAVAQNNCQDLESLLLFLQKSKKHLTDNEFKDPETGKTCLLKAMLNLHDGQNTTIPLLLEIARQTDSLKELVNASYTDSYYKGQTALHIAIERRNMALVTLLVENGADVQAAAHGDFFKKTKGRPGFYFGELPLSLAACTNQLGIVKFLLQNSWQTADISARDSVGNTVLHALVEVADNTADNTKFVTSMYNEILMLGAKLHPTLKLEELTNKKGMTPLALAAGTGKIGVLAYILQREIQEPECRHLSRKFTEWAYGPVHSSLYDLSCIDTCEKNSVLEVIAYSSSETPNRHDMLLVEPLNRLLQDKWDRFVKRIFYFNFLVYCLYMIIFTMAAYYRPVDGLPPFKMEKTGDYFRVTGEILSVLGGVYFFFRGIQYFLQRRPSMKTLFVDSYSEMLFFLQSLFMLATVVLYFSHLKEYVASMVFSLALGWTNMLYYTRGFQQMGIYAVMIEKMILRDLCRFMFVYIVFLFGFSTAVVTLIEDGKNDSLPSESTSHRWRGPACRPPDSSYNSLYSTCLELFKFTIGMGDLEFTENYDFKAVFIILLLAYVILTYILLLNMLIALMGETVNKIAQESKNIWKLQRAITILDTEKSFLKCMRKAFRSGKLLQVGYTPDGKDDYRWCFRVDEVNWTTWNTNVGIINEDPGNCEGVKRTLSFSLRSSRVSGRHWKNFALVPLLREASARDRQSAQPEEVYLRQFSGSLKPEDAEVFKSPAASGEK
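Fluo-8 calcium influx in TRPV1-expressing cells, kinetic read (ex 480/em 520 nm). Compound added and read 3 min for agonist activity, followed by capsaicin at EC20 final and 2 min further read for enhancement.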
D2 PAM: potentiates the human D2 dopamine receptor allosterically. DiscoveRx D2 beta-arrestin cells, luminescence, 90 min; 100% = 57 uM dopamine signal. 0.23% of 360,000 active. P14416. potentiation, % (concentration not given with the values); active = potentiation of 50% or more; inconclusive = 30% to 50%; inactive = 30% or less;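 note: compound concentration not given in the record; tested on top of an EC20 dose of dopamine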
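PathHunter beta-arrestin assay in DiscoveRx D2 cells. Compounds were added with an EC20 of dopamine (50 nM final) for 90 min at 37 deg C. Luminescence was read 1 h after detection reagent, with 57 uM dopamine as the EC100 control.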
Starred values were filed as active, the others as inactive; ? = inconclusive; · = no result given; & = joins results of further samples.

Sample of the layout, 3 compounds:
Every second line gives: D2 PAM, Six1-Eya2 blk, TRPML1 ag, CtBP-E1A inh, TRPV1 potentiator, TRPML1 inh
> Cc1cccnc1C(NC(=O)C1CCN(CCOc2ccc(F)cc2)CC1)c1ccc(F)cc1 (centres undefined)
  -11, -9, -0.5, -9, ·, ·
> CCc1ccccc1N1CC23C=CC(O2)C(C(=O)OC)C3C1=O (centres undefined)
  -4, 1, 0.4, 8, 17, -8
> CCOC(=O)Nc1sc(C(=O)N(CC)CC)c(C)c1C(=O)OCC
  -11, -2, 0.1, 1, -17, 17

Results (from the top)
Every second line gives: D2 PAM, Six1-Eya2 blk, TRPML1 ag, CtBP-E1A inh, TRPV1 potentiator, TRPML1 inh
> Cc1cccnc1C(NC(=O)C1CCN(CCOc2ccc(F)cc2)CC1)c1ccc(F)cc1 (centres undefined)
  -11, -9, -0.5, -9, ·, ·
> CCc1ccccc1N1CC23C=CC(O2)C(C(=O)OC)C3C1=O (centres undefined)
  -4, 1, 0.4, 8, 17, -8
> CCOC(=O)Nc1sc(C(=O)N(CC)CC)c(C)c1C(=O)OCC
  -11, -2, 0.1, 1, -17, 17
> Cc1ccc(CNC(=O)c2ccc(NS(=O)(=O)c3cccs3)cc2)cc1
  -7, 7, 2.5, -8, 9, -8
> Cn1c(NCCN2CCCC2)nc2cc(-c3ccsc3)sc2c1=O
  -3, 4, -0.4, -9, ·, ·
> Cc1onc(-c2c(F)cccc2Cl)c1C(=O)Nc1nnc(-c2ccccc2)s1
  2, 1, 1.2, -7, 24, 2
> N#CC1(P(=O)(c2ccccc2)c2ccccc2)CC1
  -1, 1, 1.6, 7, 2, 41
> Cc1ccc(C(=O)NNC(=O)c2ccccc2-n2cccc2)cc1
  -2, 2, 0.5, -11, 2, 4
> COc1ccc(C(=O)/C=C/Nc2ccc([N+](=O)[O-])cc2C)c(OC)c1
  -6, -1, 2.5, -5, 2, 13
> CCOC(=O)N1CCN(C(=S)NC(=O)C2CCCC2)CC1
  -6, -6, 0.9, 1, -7, -5
> Cc1nc(Nc2ccc(F)cc2)nc(Nc2ccc(F)cc2)c1[N+](=O)[O-]
  -1, -4, 4.6, -8, 11, 2
> Cc1ccc(OCCC(=O)NNC(=O)c2cc(C)oc2C)cc1
  2, -4, 0.2, -22, -4, 6
> O=C(c1ccc(CSc2ccc(Cl)cc2)o1)N1CCOCC1
  -1, 4, -1.0, 7, ·, ·
> O=C(Nc1nccs1)c1ccc(Br)s1
  -7, 0, -0.6, -7, 14, 4
> Cc1cc(NC(=O)c2cccs2)ccc1NC(=O)Cc1ccccc1
  -7, 3, -0.2, ·, 2, 1
> CN1CCN(C(=O)c2cccc(NS(=O)(=O)c3ccc(Br)cc3)c2)CC1
  -4, -4, 1.6, -1, 24, -20
> COc1ccc(Cl)cc1C(=O)NNC(=S)NC(=O)/C=C/c1ccco1
  -3, -6, 2.3, ·, -3, 2
> COCc1nnc(NC(=O)c2ccccc2[N+](=O)[O-])s1
  8, 0, 2.0, 12, -17, 23
> Cc1cc(C)n(-c2ccn(Cc3ccc(Cl)cc3Cl)c(=O)n2)n1
  -3, -10, -0.2, -8, -26, -3
> Cc1cc(C)c2c(n1)nn1c(N3CCN(Cc4ccccc4)CC3)cc(C)nc21
  -7, -5, 1.3, -4, -8, 2
> CCc1noc(C)c1C(=O)Nc1ccc(C(F)(F)F)cc1
  -11, 25, 0.0, 5, -8, -4
> COCCCN1C(=O)C(=O)/C(=C(/O)c2ccc(OC(C)C)cc2)C1c1ccncc1 (centres undefined)
  -7, 0, 0.5, 0, -4, 4
> Cc1cccc(N(CC(=O)N2CCN(c3ccc(F)cc3)CC2)S(C)(=O)=O)c1C
  -8, 1, 0.0, ·, -4, -7
> Cc1cc(C)nc(Nc2ccc(N3CCCC3)cc2)n1
  2, ?, 0.3, ?, -6, 13
> CCCc1c(-c2ccc(F)cc2)ncn1CCc1ccccc1OC
  ·, -21, 1.2, 2, ·, ·
> NC(=O)NC(=O)COC(=O)/C=C/c1cccs1
  -12, 8, -0.6, ·, -6, 8
> C#CCNC(=O)C1=C[C@H](c2csc3ccccc23)[C@@H](CCCO)[C@H](OCC)O1
  -6, 5, -0.2, 8, -4, -1
> c1ccc(-n2nc3ccccc3n2)cc1
  -9, 12, 0.1, 2, 1, -5
> CCN(CC)CC(O)Cn1c(-c2ccccc2Cl)nc2ccccc21 (centres undefined)
  -19, 11, -0.8, ·, -12, 4
> Cc1ccc(C(=O)CSc2ncn[nH]2)cc1
  0, -2, -1.3, -11, -12, -10
> CN(Cc1ccccc1)C(=O)COC(=O)c1cc(-c2ccc(Cl)s2)nc2ccccc12
  -15, 53, 3.3, 38, 2, -4
> CCN1c2ccccc2-c2nc3ccccc3n2C1c1cccs1 (centres undefined)
  -17, 5, 0.6, 13, -15, -7
> CCn1nnc2cc(C(=O)O)ccc21
  8, -3, -0.8, 0, -4, -16
> COC(=O)c1cccc(NC(=S)Nc2ccccc2Cl)c1
  -11, -14, 0.0, 5, -12, 11
> Cc1c(Cl)cccc1NC(CC(=O)c1ccccc1)C(=O)OCC(=O)c1cccs1 (centres undefined)
  -19, -1, 0.1, -4, 15, 5
> Cc1cc2nc(-c3cccc(Cl)c3)c(CC3CCCCC3)n2c(C)c1Br
  ·, 2, 0.0, -1, ·, ·
> CCc1nc2ccc(C(=O)N3CCN(c4ccc(Cl)cc4)CC3)cc2nc1CC
  -4, -14, 2.7&-0.7, -21, -10, 9&4
> Cc1cc(N/C=C(\C#N)S(=O)(=O)c2ccccc2Cl)nc(C)n1
  -2, 1, -0.7, -2, 12, 20
> Cc1cccc(C)c1NC(=S)N(c1ccccc1)C(C)C
  -3, 11, 4.8, 6, -10, 8
> Cc1ccn(CC(=O)NC2CC(C)(C)Cc3c2cnn3-c2ccc(F)cc2)n1 (centres undefined)
  -11, -13, -0.1, 2, 25, -18
> COc1ccc(S(=O)(=O)N(C)CC(=O)Nc2ccccc2C(F)(F)F)cc1Cl
  -2, 8, 3.5, 11, -5, -1
> Cc1cc(C)nc(NC(=O)Nc2ccccc2C(F)(F)F)n1
  -14, -2, 2.9, 2, 14, 0
> CCCCn1c(N)c(N(CC)C(=O)c2c(CC)noc2C)c(=O)[nH]c1=O
  3, 10, 0.6, -12, -9, 17
> COc1ccc(C(=O)NCCCN2CCCC2=O)cc1S(=O)(=O)N1CCOCC1
  -15, 6, -0.1, -2, ·, 3
> CCCNC(=O)COC(=O)CCC(=O)c1cccs1
  1, 12, -0.4, 32, 5, -14
> O=C(NCc1cccs1)c1nc2c(nnn2Cc2ccccc2Cl)c(=O)[nH]1
  18, -15, 0.5, -24, -4, -9
> Cc1cc(C(=O)C(=O)N(C)C)c(C)n1-c1ccc(Cl)c(Cl)c1
  -8, 0, 1.4, ·, 4, -10
> C[C@@H](NC(=O)c1ncn2c1c(=O)[nH]c1cccnc12)c1ccccc1
  3, ?, 0.6, ?, ·, -8
> O=C(CSc1nnc(-c2cccc(F)c2)o1)NC1CCCC1
  4, 16, -0.4, 0, 9, -12
> C=CCn1c(SCC(=O)Nc2cccc3ccccc23)nc(O)c(CC)c1=O
  2, -2, 0.6, -1, 17, -7
> COCCN(CC(=O)Nc1ccccc1C)S(=O)(=O)c1ccc(S(=O)(=O)N2CCCC2)cc1
  -9, -4, -0.4, 0, -2, -12
> CCOC(=O)CCCCCC(=O)Nc1ccc2c(c1)CC(=O)N([C@@H](C)CO)C[C@H](C)[C@@H](CN(C)C(=O)Nc1ccc3c(c1)OCO3)O2
  2, 0, 0.2, 0, ·, -5
> S=C(NCCCc1ccccc1)Nc1ccccc1
  -11, 2, 0.7, 3, 0, 6
> O=S(=O)(c1ccc(F)cc1)N1CCN(C(=S)NC2CCCC2)CC1
  -7, 12, 0.1, -2, -3, -7
> CC1(C)CC(=O)C2=C(C1)OC(=O)C2(NC(=O)c1cccs1)C(F)(F)F (centres undefined)
  -5, 6, 2.9, 0, -15, 20
> CCCCC(=O)Nc1cc(C(=O)NCCc2ccccc2)ccc1Cl
  -16, 0, -0.4, 1, 6, 22
> COc1ccc(NC(=O)Cn2nnc(-c3ccccc3F)n2)cc1
  0, 12, -0.1, 5, -10, 15
> Cc1[nH][nH]c(=O)c1N=Nc1ccc(Br)c(Cl)c1
  -1, -20, 0.1, 4, ·, -4
> COc1cc2cc(C(=O)Nc3ccc4c(c3)OCCO4)[nH]c2cc1OC
  -1, 1, -0.5, ·, -3, -1
> COc1ccc(C(CCN)c2ccc3c(c2)OCO3)cc1 (centres undefined)
  -21, -6, -0.2, ·, 3, -7

The results go on.
Every second line gives: D2 PAM, Six1-Eya2 blk, TRPML1 ag, CtBP-E1A inh, TRPV1 potentiator, TRPML1 inh
> Cc1ccc(S(=O)(=O)N(CC(=O)NCCSc2ccccn2)c2ccccc2F)cc1
  -6, 0, 0.6, 25, 0, -9
> Cc1ccc(C(=O)Cn2nc(C(=O)O)c3ccccc3c2=O)cc1C
  -9, 0, 1.3, ·, 12, 10
> Fc1ccc(-c2cc(C(F)(F)F)n3ncnc3n2)cc1
  -3, -12, 0.4, ·, -2, 14
> O=[N+]([O-])c1cc(/C=N/n2cnnc2)ccc1N1CCCC1
  -4, -4, 0.1, ·, 4, 11
> O=C(NC(Cc1ccccc1)C(=O)O)c1ccc(S(=O)(=O)N2CCCCC2)cc1 (centres undefined)
  -7, 6, 2.5, 3, 3, 2
> COc1cccc(C(=O)NCCSc2ccc(F)cc2)c1
  -13, 3, -0.4, 0, -14, 1
> O=C(Nc1ccc(C(F)(F)F)cc1Cl)c1ccc(Cn2cc(Br)cn2)o1
  -6, -2, 3.1, -6, -5, 48
> CCn1cc(SCC(=O)NCC2CCCO2)c2ccccc21 (centres undefined)
  -3, 1, -0.2, -6, 1, -3
> C/C(Cn1nnc2ccccc21)=N/OC(=O)c1c(F)cccc1F
  5, 15, 1.6, -10, 3, 14
> Cc1noc(C)c1NC(=O)Nc1cccc2c1O[C@H](CN(C)C(=O)NC(C)C)[C@@H](C)CN([C@H](C)CO)C2=O
  -7, 9, 0.0, 1, ·, -5
> COc1cccc(NC(=O)N2CCCc3ccccc32)c1
  -2, 0, 1.8, 6, 5, -10
> O=C(Nc1ccccc1N1CCCCC1)c1ccco1
  -4, -5, 2.0, 10, -1, 18
> CC(C)(C)NC(=O)C1CC(=O)N(CCc2ccc(F)cc2)C1 (centres undefined)
  0, -9, -0.2, -2, -16, 4
> C[C@@]12CCC3[C@@](CCC4[C@@]3(C)CCC[C@@]4(C)C(=O)NC3CCCCC3)(CC1=O)C2 (some centres undefined)
  -8, -7, 0.4, 0, -22, 17
> COc1ccc(S(=O)(=O)N2CCCCCC2)cc1C(=O)OCC(=O)NC(C)(C)C
  -2, 8, 0.4, 1, -1, 6
> CCc1ccc(/C=C2/SC(=S)N(CCCC(=O)Nc3cccc(C(=O)O)c3)C2=O)cc1
  -9, 0, -0.7, -4, ·, -5
> COC(=O)C1=C(N)Oc2cc(C)n(CC3CCCO3)c(=O)c2C1c1ccccc1 (centres undefined)
  1, -6, 0.0, 1, -18, 83
> COc1ccc(S(=O)(=O)N2CCCC2C(=O)NCc2cccs2)cc1 (centres undefined)
  -3, 0, -0.5, 3, -3, -12
> O=S(=O)(c1ccc(C(F)(F)F)cc1)N1CCCN(c2ccc(C(F)(F)F)cn2)CC1
  -7, 21, 2.7, 16, -12, 30
> CC(C)Oc1ccc(S(=O)(=O)N2CCOCC2)cc1NC(=O)CN1C(=O)c2ccccc2C1=O
  -1, 3, 2.3, -5, ·, -10

Source: PubChem
